Source: PubChem (National Center for Advancing Translational Sciences (NCATS))
GCN5L2 inh: inhibitors of human GCN5L2 histone acetyltransferase | Potency, µM (titrated, usually from 58.9 µM), inactives show top-dose activity change, negative = inhibition, actives largely listed as inhibitors | Q92830 | GCN5L2 HAT assay, ThioGlo1 CoA-SH fluorescence | hit rate 0.21% among 390,000; active means well fitted inhibition curve with a large enough effect; inconclusive means small, poorly fitted or top-dose-only effect, or another doubt; inactive means no such curve, though single readings can be large or run the other way
Target sequence (Q92830 whole entry, looked up): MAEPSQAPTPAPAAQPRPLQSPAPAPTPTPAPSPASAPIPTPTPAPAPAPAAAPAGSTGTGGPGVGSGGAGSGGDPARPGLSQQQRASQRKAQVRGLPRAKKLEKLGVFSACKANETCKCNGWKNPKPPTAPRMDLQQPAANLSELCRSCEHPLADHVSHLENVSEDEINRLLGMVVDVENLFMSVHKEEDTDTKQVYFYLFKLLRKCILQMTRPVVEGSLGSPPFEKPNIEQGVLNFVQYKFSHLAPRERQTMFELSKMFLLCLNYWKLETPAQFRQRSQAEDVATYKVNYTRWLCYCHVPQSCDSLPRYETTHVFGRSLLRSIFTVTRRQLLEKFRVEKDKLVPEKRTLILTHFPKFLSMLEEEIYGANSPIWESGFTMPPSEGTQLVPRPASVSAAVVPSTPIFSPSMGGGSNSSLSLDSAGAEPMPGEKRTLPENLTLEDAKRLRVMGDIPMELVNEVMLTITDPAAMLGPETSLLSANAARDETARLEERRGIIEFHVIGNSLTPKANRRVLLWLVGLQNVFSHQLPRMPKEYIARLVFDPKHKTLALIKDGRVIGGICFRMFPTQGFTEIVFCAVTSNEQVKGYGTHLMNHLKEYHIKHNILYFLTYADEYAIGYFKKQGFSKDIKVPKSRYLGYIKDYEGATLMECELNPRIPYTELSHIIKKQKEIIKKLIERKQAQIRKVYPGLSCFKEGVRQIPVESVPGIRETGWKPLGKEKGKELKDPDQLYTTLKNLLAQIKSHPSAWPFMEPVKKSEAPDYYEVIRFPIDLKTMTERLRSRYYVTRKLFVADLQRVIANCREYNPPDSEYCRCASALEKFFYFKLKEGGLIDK
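Titration-based screen in which CoA formation is detected via maleimide probe ThioGlo1 (50uM) turning fluorescent on thiol reaction; substrates H3(1-25) 75uM and acetyl-CoA 70uM, GCN5L2 20nM, 20 min incubation at room temperature.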
Numbers without * were called inactive; ? = inconclusive; & = joins results of further samples; [ ] = dose if it differs, or a comment. On the % scale 0 is the no-effect control and ±100 the full control effect; potency means the concentration at half of the fitted maximal effect. Only part of the results is shown; most or all hits stand in other tables.

Compound	GCN5L2 inh
Cc1cccc(C)c1NC(=O)CNc1ncnc2sc(C)c(C)c12	-15.4%
CCc1ccc(N2CC(C(=O)OCC(=O)Nc3ccc(C(C)=O)cc3)CC2=O)cc1 (stereo not given)	0.4%
O=C(CN1C(=O)C2C3C=CC(C3)C2C1=O)Nc1nc(-c2ccccn2)cs1 (stereo not given)	?
O=C(NC1CCCCC1)C(c1ccc(F)cc1)N(C(=O)c1csnn1)C1CC1 (stereo not given)	-3.5%
Cc1cc(O)c2c(-c3ccccc3)cc(=O)oc2c1	-3.9%
Cc1sc2ncnc(SCC(=O)N3CCN(C(=O)c4ccco4)CC3)c2c1C	3.9%
Cc1ccc2cccc(NC(=O)c3ccc(Br)o3)c2n1	-8.0%
CCc1cccc(N(C(=O)c2csnn2)C(C(=O)NC(C)(C)CC)c2ccccn2)c1 (stereo not given)	-10.0%
Cc1cc(=O)[nH]c(SCC(=O)Nc2ccc(C(=O)O)cc2)n1	-1.9%
Cc1cc(=O)oc2cc(NC(=O)C3COc4ccccc4O3)ccc12 (stereo not given)	-2.3%
NC(=O)CC[C@H](NC(=O)OCc1ccccc1)C(=O)OCc1ccc(Cl)cc1	-11.9%
Cc1cc(C)c(C#N)c(SCC(=O)N(C)C2CCCCC2)n1	-5.6%
Cn1cccc1C(=O)NS(=O)(=O)c1ccccc1Cl	-2.8%
Cc1cccc(CSc2nc(=O)c3c(n2C)NC(=O)CC3c2cccc(O)c2)c1 (stereo not given)	-4.6%
O=C1CN(C(=O)CC2c3ccccc3-c3ccccc32)CC(=O)N1	1.5%
Cc1cc2ncn(C3CC(=O)N(Cc4ccc(N5CCCC5=O)cc4)C3=O)c2cc1C (stereo not given)	-1.3%
COc1ccc(-c2c3c(=O)n(C)c(=O)n(C)c3c3n2-c2ccccc2NC3c2ccc(OC)cc2)cc1 (stereo not given)	-1.4%
O=C(CN1C(=O)C2CC=CCC2C1=O)Nc1ccc(S(=O)(=O)Nc2nccs2)cc1 (stereo not given)	4.9%
CCCC(=O)C1=C(c2cccc(OC)c2)N(C(=O)CCC)n2c(C)nnc2S1	-11.7%
N#CCCn1cc(/C=N/O)c(-c2ccccc2)n1	-0.3%

Structural class, those above containing four or more nitrogen atoms
Compound	GCN5L2 inh
Cc1cccc(C)c1NC(=O)CNc1ncnc2sc(C)c(C)c12	-15.4%
O=C(CN1C(=O)C2C3C=CC(C3)C2C1=O)Nc1nc(-c2ccccn2)cs1 (stereo not given)	?
O=C(NC1CCCCC1)C(c1ccc(F)cc1)N(C(=O)c1csnn1)C1CC1 (stereo not given)	-3.5%
Cc1sc2ncnc(SCC(=O)N3CCN(C(=O)c4ccco4)CC3)c2c1C	3.9%
CCc1cccc(N(C(=O)c2csnn2)C(C(=O)NC(C)(C)CC)c2ccccn2)c1 (stereo not given)	-10.0%
Cc1cc2ncn(C3CC(=O)N(Cc4ccc(N5CCCC5=O)cc4)C3=O)c2cc1C (stereo not given)	-1.3%
COc1ccc(-c2c3c(=O)n(C)c(=O)n(C)c3c3n2-c2ccccc2NC3c2ccc(OC)cc2)cc1 (stereo not given)	-1.4%
O=C(CN1C(=O)C2CC=CCC2C1=O)Nc1ccc(S(=O)(=O)Nc2nccs2)cc1 (stereo not given)	4.9%
CCCC(=O)C1=C(c2cccc(OC)c2)N(C(=O)CCC)n2c(C)nnc2S1	-11.7%
N#CCCn1cc(/C=N/O)c(-c2ccccc2)n1	-0.3%

An excerpt from above in order of their number in GCN5L2 inh, lowest first.
Compound	GCN5L2 inh
Cc1cccc(CSc2nc(=O)c3c(n2C)NC(=O)CC3c2cccc(O)c2)c1 (stereo not given)	-4.6%
Cc1cc(O)c2c(-c3ccccc3)cc(=O)oc2c1	-3.9%
O=C(NC1CCCCC1)C(c1ccc(F)cc1)N(C(=O)c1csnn1)C1CC1 (stereo not given)	-3.5%
Cc1cc(=O)[nH]c(SCC(=O)Nc2ccc(C(=O)O)cc2)n1	-1.9%
Cc1cc2ncn(C3CC(=O)N(Cc4ccc(N5CCCC5=O)cc4)C3=O)c2cc1C (stereo not given)	-1.3%

(listing goes on)
Compound	GCN5L2 inh
O=c1c(-c2n[nH]c(=S)o2)cccn1Cc1ccccc1	-13.9%
Cc1cc(C)cc(CSCC(=O)N/N=C/c2ccc(OCC(=O)NCc3ccco3)cc2)c1	-20.7%
O=C1COc2ccc(S(=O)(=O)Nc3ccc4c(c3)OCO4)cc2N1	-3.7%
COc1ccc(Cn2nnnc2CN2CCC(O)(c3ccccc3F)CC2)cc1	-7.5%
CCOC(=O)Cn1nnnc1C(CC)N(Cc1cccs1)Cc1cc2ccc(OC)cc2[nH]c1=O (stereo not given)	-9.8%
CCOc1ncccc1C(=O)OCC(=O)NC1CC1	-7.0%
CCc1cccc2c(C(=O)CN3C(=O)NC4(CCCCCC4)C3=O)c[nH]c12	-10.4%
CCOC(=O)CSc1nc2ccccc2c(=O)n1CC1CCC(C(=O)NCc2ccco2)CC1 (stereo not given)	-16.3%
Cc1ccc2c(COC(=O)C3=COCCO3)cc(=O)oc2c1	-5.1%
COC(=O)C(Cc1ccc(O)cc1)NC(=O)c1ccc2c(c1)OCCO2 (stereo not given)	-12.5%
C/C(=N/NC(=O)CNC(=O)c1cccnc1)c1ccc([N+](=O)[O-])cc1	-9.3%
Cc1ccc(Nc2c(F)c(F)c(F)c(F)c2C(=O)O)c(C)c1	-1.5%
CCOC(=O)c1cc(CO)cc(C(=O)OCC)c1	?
Cc1ccc(C(=O)c2ccc(CC(=O)O)n2C)cc1	-7.5%
Cc1ccc2c(CC(=O)N3CCN(S(=O)(=O)c4ccc5c(c4)OCCO5)CC3)coc2c1	-5.4%
c1cc(-c2ccncc2)ccn1	-2.6%
O=C1CC(c2cccc(Br)c2)C2=C(COC2=O)N1 (stereo not given)	3.9%
COC(=O)c1cccc(NC(=O)CC2NCCNC2=O)c1 (stereo not given)	-29.4%
COc1ccc(S(=O)(=O)NC(C)C(=O)NCCN2CCOCC2)cc1Cl (stereo not given)	0.6%
CCCCN(CCCC)CCNC(=O)c1cn(C)c2ccc(S(=O)(=O)N3CCCC3)cc2c1=O	-1.5%&1.8%
O=C(CCCCCN1C(=O)c2ccccc2C1=O)NCc1ccco1	-0.8%
O=C(c1ccco1)c1cn(CC(=O)N2CCCCCC2)c2ccccc12	-8.1%
COc1ccc(CCNC(=O)c2cccc3c2C(=O)N(C2CCCCC2)C3)cc1OC	-6.8%
CCOC(=O)N1CCN(c2ccc(C(C)=O)cc2F)CC1C (stereo not given)	-6.9%
CCN(CC)S(=O)(=O)c1ccc(C(=O)Nc2cc3oc4ccccc4c3cc2OC)cc1	-4.9%
COc1cccc(C2CCCN2Cc2nc(CC3CC3)no2)c1 (stereo not given)	-4.4%
O=C(Cc1ccccc1F)Nc1nc2ccccc2[nH]1	0.9%
NC(=O)CSc1nnc(-c2ccc(S(=O)(=O)N3CCCC3)cc2)o1	0.0%
Cc1cccc(N2C(=O)C3C(c4ccccc4)OC4(C(=O)c5ccccc5C4=O)C3C2=O)c1 (stereo not given)	-10.1%
CCN(CC)C(=O)CC1(c2ccccc2OC)CCOC(C(C)C)C1 (stereo not given)	-7.7%
COc1ccc(CNC(=O)C/C(C)=N/NC(=O)C(c2ccccc2)c2ccccc2)cc1	-1.8%
CC(C)Sc1ncnc2c1oc1ccccc12	2.9%
O=C(CCCN1CCC(O)(c2ccc(Cl)cc2)CC1)c1ccc(F)cc1	1.6%&-5.5%&4.5%
COc1ccccc1CCNC(=O)CCNS(=O)(=O)c1ccc(NC(C)=O)cc1	3.0%
CCN(C(=O)COC(=O)c1ccc[nH]c1=O)c1cccc2ccccc12	1.6%
COc1ccc(CCNc2nc(-c3ccco3)cc(C(F)(F)F)n2)cc1OC	-25.0%
CCCOc1ccccc1C(=O)N(Cc1cccc(Br)c1)C1CCS(=O)(=O)C1 (stereo not given)	-1.4%
COc1cc(C(=O)NCCc2ccc(F)cc2)ccc1OCC(=O)N1CCOCC1	-8.4%
C=CCn1c(COc2ccc(Cl)cc2)nnc1SCC(=O)NCC(=O)OCC	-2.6%
O=c1c2ccccc2c(=O)n2n1Cc1ccccc1C2	-3.3%
COc1cc(C2=NOC(C(=O)N3CCN(c4ccc(F)cc4)CC3)C2)cc(OC)c1OC (stereo not given)	2.4%
Cc1ccc(NC(=O)COC(=O)c2cc(Cl)ccc2Cl)c(Br)c1	-6.5%
CCCCn1cnc2c(cnn2-c2ccc(Cl)cc2)c1=O	-1.5%
CCCCn1c(N)c(NCC(C)C)c(=O)[nH]c1=O	0.0%
COc1ccc(C(C)C)cc1S(=O)(=O)N1CCC(C(=O)NCC2CCCO2)CC1 (stereo not given)	-0.7%
Cc1ccc(CNC(=O)C2CCCN(S(=O)(=O)c3cnc[nH]3)C2)cc1 (stereo not given)	-5.9%
Cc1nnc(SCC2=C(C(=O)O)N3C(=O)[C@@H](NC(=O)Cn4cnnn4)[C@@H]3SC2)s1	4.5%[21.4 µM]
C=CCn1c(Cc2cccs2)nnc1SCC(=O)Nc1cccc(OC)c1	-1.6%
COc1cc(C(=O)NCc2nc3cccnc3n2Cc2ccc(C)cc2)cc(OC)c1OC	-3.9%
Cc1ccc(NC(=O)C2CC(=O)N(c3ccc4c(c3)OCCO4)C2)cc1S(=O)(=O)N1CCCCCC1 (stereo not given)	-12.3%
Cc1cccc(CSc2nnc(-c3ccco3)n2C)c1	-3.2%
CCOc1cc(/C=N/Nc2ccccc2Cl)ccc1OCC(=O)O	-24.0%
CN(C)CCOC(=O)NC12CC3CC(CC(C3)C1)C2	-8.4%
CC(C)NC(=O)N(C)C[C@H]1Oc2ccc(NS(=O)(=O)c3ccc(F)cc3)cc2C(=O)N([C@H](C)CO)C[C@@H]1C	-9.3%
O=C(Nc1nc(-c2cccc([N+](=O)[O-])c2)cs1)c1cccc([N+](=O)[O-])c1C(=O)O	-2.6%
Cc1cc(NC(=O)COC(=O)c2cc(S(=O)(=O)N(C)C)ccc2Cl)no1	-0.3%
CCCCN1CCCCC1C(=O)Nc1c(C)cccc1C (stereo not given)	-3.4%&8.7%
Cc1ccc(OCC(=O)Nc2ccc(S(=O)(=O)Nc3cc(C)nc(C)n3)cc2)c(Br)c1	-1.8%
COc1ccc(NC2SC(=O)N(C)C2=O)cc1 (stereo not given)	-1.4%
O=C(NC(=S)NCCC1=CCCCC1)c1cccnc1	0.5%

Next section:
Compound	GCN5L2 inh
Cc1cc(C)cc(N(C(=O)c2csnn2)C(C(=O)NC(C)(C)C)c2ccncc2)c1 (stereo not given)	-4.9%
CC(NC(=O)CCCOc1ccc(Cl)cc1)c1ccccc1 (stereo not given)	-3.7%
CC(C)OC(=O)/C(C#N)=C/c1c[nH]c2ccccc12	-8.3%
CCOc1ccc(NC(=O)NCc2ccco2)cc1	-1.3%
CCN(C(=O)CSc1nncn1-c1ccccc1)C1CCS(=O)(=O)C1 (stereo not given)	-5.3%
CSc1ccc(CN(C)CC(=O)Nc2ccccc2C(=O)NC2CC2)cc1	-3.8%
O=C(CSc1nnc2ccccn12)NNC(=O)c1ccccc1	0.6%
O=C(NCCCCNCCCNC(=O)c1ccccc1)c1ccccc1	0.2%
O=C(c1ccccc1)c1c[nH]c(C(=O)NCCCn2ccnc2)c1	16.8%
Cc1[nH]c2ccccc2c1C(=O)COC(=O)Cn1c(C)nc2ccccc21	-0.8%
Cc1ccc(Cl)cc1NC(=O)c1cc(CN2CCCC2)on1	-7.1%
O=C(COc1coc(CN2CCCc3ccccc32)cc1=O)Nc1cccc([N+](=O)[O-])c1	-3.2%
COC(=O)c1c(NC(=O)CN2CCC3(O)CCCCC3C2c2ccc(F)cc2)sc(C)c1C (stereo not given)	-9.1%
COc1ccc(NC(=O)c2ccc3nc(C(C)C)oc3c2)cc1OC	-12.2%
Cc1cc2nc3n(c2cc1C)CC1CC(C(=O)NCc2ccco2)N(C)C31 (stereo not given)	-4.8%
CC(C)[C@@H](C(=O)NCC1CCC(C(=O)O)CC1)n1nnc2ccccc2c1=O (stereo not given in full)	-15.6%
COc1nn(CC(=O)N2N=C(C)CC2(O)C(F)F)cc1[N+](=O)[O-] (stereo not given)	2.8%
Cc1ccc(SCc2c(C(=O)N/N=C/c3ccccc3)nnn2-c2nonc2N)cc1	-13.4%
O=C(CN1C(=O)S/C(=C\c2ccccc2)C1=O)NNC(=O)c1ccccc1O	-13.2%
CC1CCN(CC(=O)N(C)c2c(N)n(Cc3ccccc3)c(=O)[nH]c2=O)CC1	-0.1%
C#CC1(NC(=O)NC(=O)c2c(F)cccc2F)CCCCC1	-19.3%
COc1cc(Cc2cnc(N)nc2N)cc(OC)c1OC	-0.3%
